Screening data: PubChem BioAssay, National Center for Advancing Translational Sciences (NCATS)
Anthrax LT inh – inhibitors of anthrax lethal toxin internalization; Cells, anthrax lethal toxin internalization, FRET ratio (460/530); Potency, µM (series often up to 40 µM), without a hit: at the highest dose activity change, negative = inhibition, hits mostly inhibitors; 0.67% of 70,000 active; AID 912; active = well fitted falling ratio curve with the 530 nm signal flat; inconclusive = other ratio curves, or a change in one channel alone; inactive = flat curves in the ratio and both channels; the % refers to the ratio; further: on the % scale 0 is the no-effect control and ±100 the full control effect; nearly all actives have a fitted effect of over 50% in size; tested in ME-180 cells; beta-lactamase reporter
SmPrx2 inh – inhibitors of Schistosoma mansoni peroxiredoxin 2. S. mansoni Prx2 activity coupled to TGR/GSH (TGR is thioredoxin glutathione reductase), NADPH fluorescence loss, qHTS; some inactives read as strong as hits. Potency, µM. 0.07% of 65,000 active. AID 448; active means full or partial inhibition curve with a strong effect at the top dose; inconclusive means weaker partial or single-point curve; inactive means no accepted curve; further: series up to 57 µM; many of its hits are not listed in these tables
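Enzyme mix: 100 uM NADPH, 25 nM TGR, 700 uM GSH, 50 nM Prx2 in 100 mM phosphate pH 7.4, 10 mM EDTA, 0.01% Tween-20. 15 min RT with compound; NADPH/GSH added, H2O2 starts reaction; NADPH fluorescence read 8 min.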
An asterisk follows results filed as active; ? = inconclusive; · = not tested or not shown; & = joins results of further samples; [ ] = remark or other dose. Potency means the concentration at half of the fitted maximal effect. This is a subset. The share of hits here may be higher or lower than overall.

SMILES	Anthrax LT inh	SmPrx2 inh
CSCCC(NC(=O)C1CCC(C)CC1)C(=O)NCc1ccco1 (configuration not stated)	-2%	>57
Cc1nnc(SCCn2c(N3CCC(Cc4ccccc4)CC3)nc3c2c(=O)[nH]c(=O)n3C)s1	1%	>57
Cc1nc(NCCO)c2nc(-c3ccccc3)n(CCCN(C)C)c2n1	7%	·
COC1=CC(=O)OC(CCc2ccc3c(c2)OCO3)C1 (configuration not stated)	-4%	·
O=C(CCSc1nc(-c2ccco2)cc(C(F)(F)F)n1)N1CCN(c2ccccn2)CC1	-25%	>57
COc1ccc(-n2c(=O)c(C)nc3cnc(OC)nc32)cc1	-14%	>57
C=C(C)c1cccc(C(C)(C)NC(=O)N2CCCC(C(N)=O)C2)c1 (configuration not stated)	-9%	>57
O=C1CC(c2ccccc2)n2nc(NC(=O)C3CCCO3)nc2N1 (configuration not stated)	·	>57
CSC1=C(C#N)C(c2ccccc2Cl)C2=C(CCCC2=O)N1 (configuration not stated)	14%	>57
c1ccc2c(c1)nc1sccn12	-5%	>57
O=C(Nc1ccc2c(c1)nc1n2CCSC1)c1ccccc1	?	>57
CC(=O)c1cccc(NC(=O)Nc2cc3sccc3n2C)c1	?	>57

Part of the list above, with each value named:
CSC1=C(C#N)C(c2ccccc2Cl)C2=C(CCCC2=O)N1 (configuration not stated)
  Anthrax LT inh = 14%; SmPrx2 inh = >57

c1ccc2c(c1)nc1sccn12
  Anthrax LT inh = -5%; SmPrx2 inh = >57

O=C(Nc1ccc2c(c1)nc1n2CCSC1)c1ccccc1
  Anthrax LT inh = ?; SmPrx2 inh = >57

CC(=O)c1cccc(NC(=O)Nc2cc3sccc3n2C)c1
  Anthrax LT inh = ?; SmPrx2 inh = >57

More records:
SMILES	Anthrax LT inh	SmPrx2 inh
N#Cc1cccc(CSc2nnc(CCCO)n2-c2ccccc2)c1	19%	·
Cc1ccc2nc(C3CCCN(C(=O)NCc4ccccc4)C3)[nH]c2c1 (configuration not stated)	-8%	>57
COC(=O)[C@H](C)NC(=O)C/C=C\[C@@H](C)[C@H]1C=C[C@H](O)[C@@H](CO)O1	14%[8 µM]	·
CCOC(=O)C1CCN(C(=O)COC(=O)COc2ccccc2OC)CC1	-2%	>57
C=CCNc1ncnc2c1cnn2-c1ccc(C)cc1C	2%	>57
O=c1cc(CSc2nnc(-c3ccccc3)o2)c2ccccc2[nH]1	-1%	>57
CCC1=C(C[C@H]2NCCc3ccccc32)C[C@@H]2c3cc(OC)c(OC)cc3CCN2C1	?	>57
COc1ccccc1-c1nc(C#N)c(N2CCN(C(c3ccccc3)c3ccccc3)CC2)o1	10%	>57
CCOC1(OCC)N=C(N)C2(C#N)C(c3ccc(NC(C)=O)cc3)C12C#N (configuration not stated)	?	>57
COCCn1c(=O)c(-c2cccs2)nc2cnc(N3CCNCC3)nc21	?	>57
CCN1C(=O)C2C(c3ccccc3F)NC(Cc3ccc(O)cc3)(C(=O)OC)C2C1=O (configuration not stated)	-13%	>57
COc1cccc(NC(=O)Cn2nnc(C(=O)Nc3ccccc3)c2N)c1	7%	>57
CCCCOC(=O)C1Cc2ccccc2C(=O)O1 (configuration not stated)	14%	>57
COc1ccc(NC(=O)CSc2nnc(-c3ccccc3C)n2N)cc1OC	-5%	>57
O=C(NCc1cccs1)C1CCC(CNS(=O)(=O)c2cccs2)CC1 (configuration not stated)	-9%	>57
O=C(CCCn1c(=O)[nH]c2ccccc2c1=O)NC1CCCCCC1	-4%	>57
O=C(Nc1nnc(C23CC4CC(CC(C4)C2)C3)s1)c1ccco1	-14%	>57
Cc1ccc(C(=O)NCc2cccs2)cc1S(=O)(=O)N1CCCCC1	0%	>57
COc1ccc(-c2nn3c(-c4cccc(C)c4)nnc3s2)cc1OC	?	>57
Cc1ccc(-c2csc3nnc(SCC(=O)Nc4cccc(C)n4)n23)cc1	-12%	>57
O=C(Cn1cnc2c(cnn2-c2ccc(F)cc2)c1=O)N1CCCc2ccccc21	-18%	>57
CCCCC(=O)Nc1ccc2c(c1)nc1n2CCSC1	-6%	>57
CCn1c(O)c(/C=N/n2cnnc2)sc1=S	-6%	·
CC(NC(=O)c1ccc(S(=O)(=O)N(C)C)cc1)c1ccccc1 (configuration not stated)	3%	>57
c1ccc2cc(NCNc3ccc4ccccc4c3)ccc2c1	-12%[8 µM]	>57
Cc1cc2c(c(C)nn2-c2ccccc2)c(=O)o1	1%	>57
CCN(N=O)C(N)=O	?	·
O=C1c2cccnc2C(O)N1Cc1cccs1 (configuration not stated)	-5%	>57
CCOC(=O)Cc1csc(NC(=O)CCN2C(=O)c3ccccc3C2=O)n1	-5%	>57
Cc1sc2nc(SCC(=O)NCc3ccco3)[nH]c(=O)c2c1C	10%	>57
Cc1ccc(NC(=O)COC(=O)C2CC2C)c(S(=O)(=O)N2CCCCC2)c1 (configuration not stated)	-5%	>57
COc1ccc2nc(NC(=O)c3cccc(OCc4c(C)noc4C)c3)sc2c1	?	>57
CCOC(=O)c1cc2c(=O)n3cc(C)ccc3nc2n(Cc2cccnc2)c1=N	-3%	>57
ClC1=CCC2CN(CCN3CCCCC3)CC2C1 (configuration not stated)	-11%	·
O=C1NCCN1c1ncc([N+](=O)[O-])s1	5%[3.58 µM]	>57
CN1CCN([C@@H](c2ccccc2)c2ccc(Cl)cc2)CC1	?	>57

Profiles, quoted from the list. Order of values: Anthrax LT inh	SmPrx2 inh
`c1ccc2cc(NCNc3ccc4ccccc4c3)ccc2c1` is entered as -12%[8 µM]	>57
`CCN(N=O)C(N)=O` is entered as ?	·
`O=C1c2cccnc2C(O)N1Cc1cccs1` (configuration not stated) is entered as -5%	>57
`CCOC(=O)Cc1csc(NC(=O)CCN2C(=O)c3ccccc3C2=O)n1` is entered as -5%	>57

Carrying on.
SMILES	Anthrax LT inh	SmPrx2 inh
COc1ccc(NC(=O)CN2CCN(CC(=O)Nc3ccccc3Cl)CC2)cc1	-28%	>57
COc1cc2c(cc1NC(=O)c1cccnc1)CCCC2	3%	>57
O=C(CN1CCC(C(=O)c2ccc(F)cc2)CC1)Nc1ccccc1	-5%	>57
O=S(=O)(c1cccs1)N1CCc2ccccc21	-23%	>57
NC1=N[C@H](c2ccc(Cl)cc2)N(c2ccc(S(=O)(=O)Nc3ncccn3)cc2)C(N)=N1	-7%[8 µM]	>57
COc1cc2nc(C3CCC3)n(NC(=O)COc3ccccc3)c(=O)c2cc1OC	11%	>57
Cc1ccc(Nc2cc(=O)n(C3CCCCC3)c(=O)[nH]2)cc1C	4%	>57
O=C(CC1OC(=O)c2ccccc21)c1ccco1 (configuration not stated)	?	>57
O=C(Nc1nnc(C2CCCCC2)s1)c1ccco1	-8%	>57
Cc1nonc1NC(=O)OC1CCCCC1	5%	>57
O=c1oc2cc(O)ccc2c2c1CCCC2	·	>57
COc1ccc(-n2c(CNC(=O)c3cc(OC)c(OC)c(OC)c3)n[nH]c2=S)cc1	14%	>57
COc1ccc(-c2coc3cc(O)ccc3c2=O)cc1	?	>11
COc1ccc(OC)c(C2=NOC(C(=O)Nc3c(C)n(C)n(-c4ccccc4)c3=O)C2)c1 (configuration not stated)	8%	>57
CN(C)C(=O)N1CCC(C(=O)NC2CCCCCCC2)CC1	10%	>57
CS(=O)(=O)N1CCC[C@@]2(CCN(C(=O)Nc3cccc(C#N)c3)C2)C1	-5%	>57
O=C(O)CSc1nnc(CNc2ccc(Cl)cc2)n1Cc1ccccc1	-14%	>57
COc1ccc(C2C(C(C)=O)=C(O)C(=O)N2CCCn2ccnc2)cc1OC (configuration not stated)	14%	>57
Cc1cc(N2CCN(C(=O)c3ccco3)CC2)n2ncnc2n1	-11%	>57
Cc1csc(NC(=O)c2cc3c(s2)CCC3)n1	5%	>57
O=C(Nc1ccc(Cl)cc1)N(Cc1cccs1)Cc1cccs1	-21%	·
Cn1c(=O)oc2cc(S(=O)(=O)N3CCc4ccccc4C3)ccc21	-1%	>57
O=C(c1cccc(F)c1)N1C2C=CC(C2)C1(C(F)(F)F)C(F)(F)F (configuration not stated)	-15%	>57
CCOc1cc(C(N)=O)cc(OCC)c1OCC	-19%	>57
CCOC(=O)C1CCN(CC(O)COc2ccc(C(C)(C)CC)cc2)CC1 (configuration not stated)	5%	?
CC1CCCCN1CCNC(=O)C1CCN(S(=O)(=O)c2cccc3cccnc23)CC1 (configuration not stated)	9%	>57
COC(=O)Nc1ccc2c(c1)N(C(=O)CCN1CCN3CCCC3C1)c1ccccc1CC2 (configuration not stated)	10%	>57
CCOc1ccc(C(=O)Nc2nncs2)cc1OCC	4%	>57
Cc1oc2c(C)c3oc(=O)c4c(c3cc2c1C)CCC4	·	>57
Cc1noc(C)c1-c1cc(Nc2ccc(F)cc2)ncn1	-8%	>57
CCCN1/C(=C(/C#N)C2=NS(=O)(=O)c3ccccc32)N(C)c2ccccc21	?	>57
Cc1ccc2c(c1)c(C)c(C)n2CC(O)Cn1nc(C)c(Br)c1C (configuration not stated)	?	>57
Cc1ccccc1CN1CCCNC1=O	-17%	>57
CCCSC1=C(C#N)C(c2ccccc2C)CC(=O)N1 (configuration not stated)	5%	>57
COc1ccc(NC(=O)c2ccccc2C)c(OC)c1	-3%	·
CC(C)OC(=O)CSc1ncnc2c1cnn2Cc1ccccc1	-4%	>57
CCC(Sc1nnnn1-c1ccccc1)C(=O)Nc1nc2ccccc2s1 (configuration not stated)	?	·
O=C(c1ccncc1)N1CCC2(CC1)CN(c1ccc(-c3ccccc3)cc1)C2	-23%	>57
Cc1noc(C)c1C(=O)N1CCC2(CCCN(CC(C)C)C2)CC1	9%	>57
Cc1cc(C(=O)COC(=O)Cn2cnc3c2c(=O)n(C)c(=O)n3C)c(C)n1C	-7%	>57
CCOC(=O)c1ccc(N2Cc3ccccc3C2)cc1O	-12%	>57
O=C(CCCn1c(=S)[nH]c2ccccc2c1=O)N1CCCCC1	5%	>57
O=C(O)CP(=O)(O)O	-6%[8 µM]	>57&>57
CCC(Sc1nnnn1-c1ccccc1)C(=O)NC(C)c1ccccc1 (configuration not stated)	-8%	>57
COc1ccc(-c2ccc3c(n2)CCCN3C[C@H](O)CN2CCCc3nc(C)c(C)cc32)cc1	-3%[8 µM]	·
Cc1cc(NC(=O)c2ccc3nc(-c4ccccc4)c(-c4ccccc4)nc3c2)no1	-1%	>57
Cc1cccc(OCc2nnc(SCc3cc(=O)n4cc(Br)ccc4n3)o2)c1	-15%	>57
COc1ccc(-c2noc(-c3ccccc3F)n2)cc1	-27%	>57
CCN(CC)S(=O)(=O)c1ccc2[nH]cc(C(=O)NCCN3CCCCCC3)c(=O)c2c1	·	>57
O=C(CN(Cc1ccco1)C(=O)c1cc(=O)[nH]c2ccccc12)Nc1ccccc1Br	2%	>57
CCNC(=O)C1CCN(S(=O)(=O)c2ccc(F)cc2)CC1	-5%	>57
CSCCC(NS(=O)(=O)c1ccc(Cl)cc1)C(=O)OCC(=O)N1CCOCC1 (configuration not stated)	8%	>57
O=C(c1ccccc1S(=O)(=O)NCc1ccccc1)N1CCCCC1	-13%	>57
COc1ccc(-c2nnc3sc(-c4ccco4)nn23)cc1OC	-7%	?
CCN(CC)CCCN(C(C)=O)c1nc(-c2cc(OC)ccc2OC)cs1	2%	>57
O=C(Cc1cccs1)Nc1nnc(SCC(=O)N2CCCCC2)s1	-4%	>57
O=C(CCCCCN1C(=O)c2ccccc2C1=O)Nc1ccc(S(=O)(=O)N2CCCCC2)cc1	-8%	>57
CCCCN(C)C(=O)c1ccc(CS(=O)(=O)c2ccccc2C)o1	-7%	>57
Cn1c(=O)cc(OCCCC(=O)N2CCCCC2)c2ccccc21	7%	>57
O=C(c1ccncc1)N1CCC[C@@]2(CCN(Cc3ccncc3)C2)C1	3%	>57

The results go on.
SMILES	Anthrax LT inh	SmPrx2 inh
CCOC(=O)N1CCN(CCC(=O)Nc2ccc(OC(F)(F)F)cc2)CC1	-9%	>57
CC(=O)c1cc2c(cc1NC(=O)CSc1nnc(C)s1)OCO2	9%	>57
Fc1ccc(-c2nc3nc4ccccc4nc3n2Cc2ccco2)cc1	2%	>57
O=C(NC1CCCCCC1)C1CCCN(S(=O)(=O)c2cccs2)C1 (configuration not stated)	9%	>57
C#CCOC(=O)C1=CCCN(C)C1	?	>57&>57
Cc1nn2cc(-c3ccc(N)cc3)nc2s1	?	>57
CC(C)C(c1nnnn1C1CCCC1)N1CCN(c2ccccc2F)CC1 (configuration not stated)	-19%	>57
CCCCc1nc2ccccc2n2cc3c(=O)n(C)c(=O)n(C)c3c12	-1%	>57
CC(C)OC(=O)Cn1cnc2ccc(Br)cc2c1=O	-1%	>57
COc1ccc(-c2csc(N3CCN(Cc4ccc5c(c4)OCO5)CC3)n2)cc1	-14%	>57
CCOC(=O)C1CCCN(C(=O)c2sc3nc(-c4ccc(OC)cc4)cn3c2C)C1 (configuration not stated)	-14%	>57
CCCNC(=O)c1ccccc1NS(=O)(=O)c1ccc(OC)c(OC)c1	7%	>57
COc1ccc(CN2CC(C(=O)N3CCOCC3)CC2=O)cc1 (configuration not stated)	-7%	>57
Cc1c(C)n(C(=O)CN2CCN(c3ccccn3)CC2)c2ccccc12	-20%	>57
CCCCNS(=O)(=O)c1cccc(S(=O)(=O)N2CCCC2)c1	1%	>57
